# NPYLR7 ag: mosquito NPYLR7 agonism | HEK293T NPYLR7/Galpha15, GCaMP6s calcium fluorescence | activation, % at 10 µM | 270,000 tested, 0.15% active | AID 1259423; in the data active means activation above about 40%;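 further: 0% = vehicle and 100% = reference agonist at the receptor; some compounds past the cut are filed as inactive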
# NPYLR7 ag max-min: also measured in NPYLR7 ag; calls as there; activation, %; measured here: Max-Min RFU normalised activation; some inactives read as strong as hits;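 span of the calcium signal over five minutes; 0% = vehicle and 100% = native peptide agonist; compound fluorescence can raise it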
# The depositor's hits bear a star; & = joins results of further samples.
SMILES | NPYLR7 ag max-min | NPYLR7 ag
Cc1ccc(CNC(=O)c2cnc3ccc(C)cn3c2=O)cc1 | 0 | 3
CN(C(=O)CN1CCN(C(=O)C2CC(=O)N(Cc3ccc(F)c(Cl)c3)C2)CC1)c1ccccc1 (configuration not stated) | 9 | 0
O=C(O)c1ccccc1C(=O)Nc1ccc(S(=O)(=O)Nc2nccs2)cc1 | -10&-3 | -4&-2
O=C(NCC1CCN(c2ncccn2)CC1)NC(c1ccccc1)c1ccccc1 | -10 | -11
N#Cc1c(NC2CCCCC2)nc(-c2ccco2)c2c1CCCC2 | 2 | 1
Cc1ccc(S(=O)(=O)Nc2ccc(Nc3ccc(-n4cccn4)nn3)cc2)cc1 | -9 | -4
O=c1ccc2cc(S(=O)(=O)n3cnc4ccccc43)ccc2o1 | 3 | 1
CCOCCOc1nc(-c2ccccc2C)n(-c2ccc(NC(=O)c3cccc([N+](=O)[O-])c3)cc2)n1 | -3 | -10
CC(C)(C)c1ccc(CCC(=O)Nc2ccc3[nH]c(=O)c(=O)[nH]c3c2)cc1 | 3 | 3
Cc1ccc2c(c1)CCN1C(=O)CN(C(=O)Cc3cccs3)CC21 (configuration not stated) | 14 | 2
CCOC(=O)c1c(NC(=O)c2ccc(OC)c(OC)c2)c(-c2ccc(OC)cc2)cn1Cc1ccccc1 | -1 | 6
CC(=O)c1c(O)nc2sccn12 | 13 | 23
Cc1ccc(-c2ccc3nnc(SCC(=O)NCC4CCCO4)n3n2)cc1 (configuration not stated) | -8 | -13
CC1CCN(c2ccc(NC(=O)c3ccc(Br)cc3)cc2C(=O)NCc2ccc(F)cc2)CC1 | 18 | 5
CN(C)P(=NC(=S)Nc1cccc([N+](=O)[O-])c1)(c1ccncc1)N(C)C | 11 | 7
COc1ccc(C(=O)Nc2c(N)nc(SCC(=O)Nc3ccccc3)[nH]c2=O)cc1OC | 0 | 0
CC(C)c1ccc(CN2CCC2(C)C(=O)NCCc2c[nH]c3ccccc23)cc1 (configuration not stated) | 3 | 5
COCCC(=O)N(C)CC1CCN(CCc2ccccc2OC)CC1 | 2 | 4
CC1(C(=O)N2CCC(c3n[nH]c(=O)n3-c3ccccc3)CC2)CCCCO1 (configuration not stated) | 8 | 8
COc1ccccc1CC(C)CC(=O)N1CCC(NC(=O)Oc2ccccc2)CC1 (configuration not stated) | -1 | 2

# 6 entries from above, with two lines to a compound.
# Values run as follows: NPYLR7 ag max-min, NPYLR7 ag
CN(C)P(=NC(=S)Nc1cccc([N+](=O)[O-])c1)(c1ccncc1)N(C)C
→ 11, 7
COc1ccc(C(=O)Nc2c(N)nc(SCC(=O)Nc3ccccc3)[nH]c2=O)cc1OC
→ 0, 0
CC(C)c1ccc(CN2CCC2(C)C(=O)NCCc2c[nH]c3ccccc23)cc1 (configuration not stated)
→ 3, 5
COCCC(=O)N(C)CC1CCN(CCc2ccccc2OC)CC1
→ 2, 4
CC1(C(=O)N2CCC(c3n[nH]c(=O)n3-c3ccccc3)CC2)CCCCO1 (configuration not stated)
→ 8, 8
COc1ccccc1CC(C)CC(=O)N1CCC(NC(=O)Oc2ccccc2)CC1 (configuration not stated)
→ -1, 2

# Later entries
SMILES | NPYLR7 ag max-min | NPYLR7 ag
CO[C@H]1CN(C(=O)c2cc(C3CC3)[nH]n2)CC[C@H]1N | -5 | -6
COC(=O)c1sccc1N=Cc1c(O)n(C)c(=O)n(C)c1=O | 5 | 8
CCNS(=O)(=O)c1ccc(OC)c(NC)c1 | -1 | 2
CCCNC(=O)C1(C)CCN(Cc2cc(-c3ccccc3)on2)C1 (configuration not stated) | -2 | -1
CC=CCn1c(=O)c2c(nc3n2CC(C)=NN3CCC)n(C)c1=O | 2 | 7
COc1ccc(C=C2SC(N3CCCCC3)=NC2=O)cc1OC | 0 | 5
CC(=O)c1ccc(S(=O)(=O)Nc2cccc(-c3ccc4nnc(C)n4n3)c2)cc1 | -4 | -7
COc1ccc(C(=O)N2CCC[C@@H]2C(=O)NCCCNC(=O)c2ccccc2)c(OC)c1 | 29 | 28
CSc1ncc(CN2CCCC(C(=O)c3ccc(Oc4ccccc4)cc3)C2)cn1 (configuration not stated) | -11 | -10
O=C(COc1ccc(Cl)cc1)OCc1cc(-c2cc3ccccc3o2)on1 | -1 | -1
CC(C)(C)N(CC(=O)N1CCc2sccc2C1c1ccccc1)S(=O)(=O)c1cccc2cccnc12 (configuration not stated) | 17 | 18
O=C(Cc1cccs1)NCCCC(=O)Nc1cccc2cccnc12 | 6 | 8
COc1ccc2cc(C3CN(C(=O)C4CCOCC4)CCO3)ccc2c1 (configuration not stated) | -14 | 1
O=C(c1ccc(-c2ncn[nH]2)cc1)N1CCCC(Nc2ccc(F)cc2)C1 (configuration not stated) | 0 | 2
COc1cccc(N2CCn3c2nc2c3c(=O)[nH]c(=O)n2C)c1 | 2 | 4
COC(=O)c1ccc(N2C(=O)CC(NCc3ccco3)C2=O)cc1 (configuration not stated) | 1 | 3
Cc1ccnc(CC(C)N(C)C(=O)c2occc2C)c1 (configuration not stated) | -7 | -2
Cc1cc(CNS(=O)(=O)c2ccccc2C(C)(C)C)no1 | 1&1 | 2&1
O=C(NC1CC2CCC(C1)N2Cc1ccc2c(c1)OCO2)c1ccc(F)c(C(F)(F)F)c1 (configuration not stated) | 7 | 2
CCCCC(CC)C(=O)Oc1ccc(-c2nc3ccccn3c2NC2CCCCC2)cc1 (configuration not stated) | 25&3 | 14&6
CC(C(=O)NC1(C#N)CCCCC1)N1CCN(C(=O)C2CCCC2)CC1 (configuration not stated) | 2 | 3
Cc1cccnc1NC(=O)Nc1cn(C)c2ccccc12 | -1 | 2
O=c1c2ncccc2n(Cc2ccc(Cl)cc2Cl)c(=O)n1Cc1ccccn1 | -1 | 3
Cc1nc(CCN)cc(NCC(O)c2ccccc2)n1 (configuration not stated) | 10 | 20
CCOc1ccc(C=C2SC(=O)N(CCNC(=O)C=Cc3csc(C)n3)C2=O)cc1OC | 6 | 5
CCOc1cccc2sc(N(CCCn3ccnc3)C(=O)c3cccs3)nc12 | -20 | -12
Cc1cc(C)n2nc(SCc3ccccc3)nc2n1 | 0 | 2
NCCc1nc(NCCCC2CCOC2)c2ccccc2n1 (configuration not stated) | 4 | 7
CCC(Cc1ccc(C)cc1)N(C)C(=O)NC1CCC(=O)N(C)C1 (configuration not stated) | -1 | 2
Cc1cccc(C(=O)NC(C(=O)N2CCOCC2)C2CCN(S(=O)(=O)c3ccc(Cl)cc3)CC2)c1 (configuration not stated) | 4 | -3
CCOC(=O)Cn1c(=S)[nH]c2sc3c(c2c1=O)CC(C)(C)NC3(C)C | 6 | 3
CC1=CC(C)(C)N(C(=O)CSc2nc3ccccc3s2)c2cc(C)ccc21 | -10 | -3
Cc1cc(Cl)ccc1N(CC(=O)NCCSc1ccccc1)S(C)(=O)=O | 8 | 11
C=CCN1C(=O)C(NC(=O)c2ccccc2)(C(F)(F)F)N=C1c1ccccc1 (configuration not stated) | -5 | -4
CCN1CCN(C(c2ccccc2Cl)C2Sc3nc(-c4ccco4)nn3C2=O)CC1 (configuration not stated) | -4 | -2
O=C1NCC2(CCCN(C(=O)c3cnn4ccccc34)CC2)O1 (configuration not stated) | -8 | -8
COc1cc(C(=O)N=c2sccn2Cc2ccccc2)cc(Cl)c1OCC(N)=O | 6 | 8
COc1ccc(CNC(=O)c2ccc(NC(C)C)nc2)cc1 | 17 | 21
CCCCCCc1cc2cc(-c3csc(Nc4ccccc4F)n3)c(=O)oc2cc1O | 9 | 18
O=C(Cn1nnc(-c2ccccc2)n1)NCCc1ccc2c(c1)OCCO2 | 2 | -3
COc1cccc(CN2CCCC(N3CCN(c4cccc(Cl)c4)CC3)C2)c1OC (configuration not stated) | 2 | 2
O=C(NCC1CCN(c2ccc(F)c(F)c2)C1)c1cccs1 (configuration not stated) | -25 | -22
NC(=O)CCCNS(=O)(=O)c1ccc(Cl)c(Cl)c1 | -1 | 2
CC1CCCCC1NC(=O)CCc1nc(-c2ccsc2)no1 (configuration not stated) | 5 | 8
O=C1NC(=S)N/C1=C/c1ccc(-c2cccc([N+](=O)[O-])c2)o1 | -9 | -2
CCNC(=O)C1(C)CCCN1C(=O)COc1ccccc1 (configuration not stated) | 1 | 4
O=C(c1cn[nH]c1)N1CCOC(Cc2cccc(F)c2)C1 (configuration not stated) | 4 | 7
Cc1cc(=O)[nH]c(NCCNC2CCC3(CCNCC3)CC2)n1 | 5 | 8
Cc1ccc(CN(C)CC(=O)N(C)CC(=O)Nc2cc(C)ccc2C)c(C)c1 | 7 | 10
COc1cccc(-c2nc3ccc(Cl)cn3c2NC2CCCCC2)c1 | -2 | -3

# Other compounds:
SMILES | NPYLR7 ag max-min | NPYLR7 ag
CCOc1cc(C(=O)Nc2ccc3c(c2)OCCO3)ccc1OCC(=O)N1CCCCC1 | 8 | 14
CCCOc1ccc(NC(=O)NC(C)C(=O)NCC)cc1Cl (configuration not stated) | 2 | 3
CN(Cc1ccccc1Br)CN1C(=O)NC2(CCC(C(C)(C)C)CC2)C1=O (configuration not stated) | 13 | 8
CCN(CC)C(=O)c1cc(NC(=O)Nc2ccccc2F)ccc1N1CCCC1 | -1 | -3
Cc1ccc(-n2c(=O)[nH]c3c(C(N)=O)nc(-c4sccc4C)nc32)cc1C | 10 | 28
CC1=CC[C@@H]2CN(C(=O)c3cc(C)c4nc(N)sc4c3)C[C@@H]2C1 | -4 | -3
CC(CC1=CCN(CC(=O)N(C)C)CC1)NC(=O)c1ccco1 (configuration not stated) | -10 | -7
CCOC(=O)CN1CC23C=CC(O2)C(C(=O)N2CCCC2)C3C1=O (configuration not stated) | 5 | 14
N#CCCN(C(=O)c1ccccc1-n1cccc1)C1CC1 | 1 | 6
CSc1nc2ncc3c(=O)n(-c4ccc(OC(F)(F)F)cc4)ccc3n2n1 | 4 | 0
COc1ccc(Cl)cc1NC(=O)CCC1CCCN(C(=O)c2ccc(CSC)o2)C1 (configuration not stated) | 11 | 10
CCOC(=O)C1=C(C)N=c2s/c(=C/c3ccco3)c(=O)n2C1c1ccc(OC)cc1 (configuration not stated) | 1 | 3
Cn1c(=O)c2ncn(CC(=O)Nc3ccc(C(=O)NC4CCCCC4)cc3)c2n(C)c1=O | -6 | -1
CC(=O)Nc1sc(C)c(C)c1C(=O)OCC(=O)NC(C)(C#N)C(C)C (configuration not stated) | -6 | -3
CN(Cc1nc(C2CC2)no1)C(=O)c1cccc(CC2CCNCC2)c1 | 1 | 3
Cc1ccc(C)c(NC(=O)C2(S(=O)(=O)c3ccccc3)CCCC2)c1 | 2 | 4
CC(C)CN(CC(=O)Nc1nc(CC(=O)N2CCCC2)cs1)C(=O)c1ccc(Cl)cc1 | 24 | 20
CC1CCC2(CC1)NN=C1SC(C)C(=O)N1N2 (configuration not stated) | 11 | 7
Cc1ncc(Cl)c(C(=O)N2CCCSc3ccccc32)n1 | -4 | -4
COc1cccc(C(=O)Nn2cnc3c(cnn3-c3ccc(C)cc3)c2=O)c1OC | 1 | 4
CCn1c(SC(C)C)nnc1-c1cn(C)nc1OC | 9 | 7
O=c1[nH]c(/C=C/c2ccc(F)cc2)nc2sc3c(c12)CCC3 | 11 | 8
O=C(Nc1cc(Cl)ccc1Oc1ccc(Cl)cc1)C1CCS(=O)(=O)C1 (configuration not stated) | -1 | 0
CC(=O)Nc1cccc(C(=O)NC2CC(=O)N(CCc3ccccc3)C2)c1 (configuration not stated) | 1 | 5
COc1cccc(-c2cnc(-c3ccc(CNC(=O)c4cc(C)nc(Cl)c4)cc3)[nH]2)c1 | -9 | -6
Cc1nc2ccc(C(=O)N3CCCC(C(N)=O)C3)cn2c1N(C)C(=O)CCc1ccccc1 (configuration not stated) | 14 | 20
CC1CN(C)CCN1CCOc1ccc(S(N)(=O)=O)cc1 (configuration not stated) | 18 | 19
CN(C)c1nc(-c2ccncc2)nc2c1CCN(C(=O)c1cnccn1)C2 | 6 | 1
Cn1c(N)c(C(=O)COC(=O)c2cc3c(s2)CCC3)c(=O)n(C)c1=O | 10 | 7
CC(=O)c1c(C)[nH]c(C(=O)C(C)OC(=O)c2ccc(Cl)cc2F)c1C (configuration not stated) | 9 | 24
Cc1nc(SCC(=O)Nc2ncccn2)n[nH]1 | -12 | -8
COc1ccccc1-n1nnnc1SC1CC(C)OC1=O (configuration not stated) | 6 | 13
CC(=O)Nc1ccc(NC(=O)C(C)Sc2nnc(COc3ccc(F)cc3)o2)cc1 (configuration not stated) | 7 | 11
Cc1cc(NC(=O)COc2ccccc2C)n(-c2nc(-c3cccs3)cs2)n1 | -18 | -8
CCC(CC)N(CC)C(=O)c1ccc(=O)[nH]n1 | -17 | -9
CCc1nn(CCO)cc1C(=O)O | 7 | 7
N#Cc1ccc(CSCc2nc(-c3ccccc3)no2)cc1 | 3 | 3
Fc1cc(F)cc(C2C=C(c3ccco3)Nc3ncnn32)c1 (configuration not stated) | 77* | 78*
Cc1ccc(NC(=O)CNC(c2cccnc2)c2ccc(C)c(C)c2)c(C)c1 (configuration not stated) | -13 | -5
Cc1ccc(NC2CCCN(C(=O)CSc3ccncc3)C2)cc1C (configuration not stated) | 2 | 2
COc1ccc(Cn2c(=O)[nH]n(-c3ccccc3)c2=O)cc1F | -5 | -3
Oc1ccc2ccccc2c1C=NC1CC1 | 7 | 7
CC1CC(C)CN(CCNc2nc3c(cnn3C(C)(C)C)c(=O)[nH]2)C1 (configuration not stated) | 13 | 18
COc1cccc2sc(N(CCN(C)C)C(=O)CCS(=O)(=O)c3ccc(C)cc3)nc12 | -2 | 0
O=C(NC(c1ccc(F)cc1)c1cnccn1)C1CCN(Cc2ccc3c(c2)OCO3)CC1 (configuration not stated) | -18 | -15
CCOC(=O)N1CCN(CC(=O)N2N=C(c3ccc(OC)c(OC)c3)CC2c2cc(C)ccc2C)CC1 (configuration not stated) | 8 | 0
CCN(CC)c1ccc2cc(-c3nnc(Nc4cc(OC)ccc4OC)s3)c(=O)oc2c1 | 3 | 0
OCc1ccnc(-c2cc(NCc3cccnc3)nc3[nH]ccc23)c1 | -12 | -11

# Taken from above:
# Under NPYLR7 ag max-min, Oc1ccc2ccccc2c1C=NC1CC1 has the entry 7
# Under NPYLR7 ag, OCc1ccnc(-c2cc(NCc3cccnc3)nc3[nH]ccc23)c1 has the entry -11
# Under NPYLR7 ag max-min, COc1ccc(Cn2c(=O)[nH]n(-c3ccccc3)c2=O)cc1F has the entry -5

# An excerpt (hit frequency here may not be typical).
